LYPLA1 inh: LYPLA1 inhibitors, primary screen, counter-screen for PME1 inhibitor project, biochemical, fluorescence polarization, FP-Rh probe ABPP. actives 0.16% (n = 320,000). Acyl-protein thioesterase 1 (Homo sapiens), O75608. inhibition, % at 5.9 µM. recombinant LYPLA1. AID 2174, 2009;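 active = inhibition above the mean of all tested compounds plus 3 SD, set per campaign, cut at about 14% in these data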;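 also: inhibitors block serine hydrolase probe labeling of LYPLA1 so polarization falls; 0% = enzyme with DMSO and 100% = wells lacking LYPLA1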
Target sequence (O75608 whole entry, looked up): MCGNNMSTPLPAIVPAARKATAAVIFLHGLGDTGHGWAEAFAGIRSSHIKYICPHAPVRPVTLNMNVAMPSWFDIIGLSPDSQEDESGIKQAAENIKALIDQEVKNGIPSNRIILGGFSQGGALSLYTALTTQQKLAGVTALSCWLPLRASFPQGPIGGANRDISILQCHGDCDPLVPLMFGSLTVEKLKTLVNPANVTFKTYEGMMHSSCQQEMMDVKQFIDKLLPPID
PAFAH2 FP inh: PAFAH2 enzyme inhibitors, primary screen, biochemical, fluorescence polarization, human; recombinant PAFAH2, FP-rhodamine activity probe; Platelet-activating factor acetylhydrolase 2, cytoplasmic (Homo sapiens), Q99487; inhibition, % at 3.39 µM; actives 0.99% (n = 340,000);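 active = inhibition above the mean over all tested compounds plus 3 SD, cut at about 30% in these data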;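 also: inhibitors block probe labeling of enzyme so polarization drops; 0% = enzyme with DMSO and 100% = wells lacking PAFAH2 protein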
Fam108B inh: mouse Fam108B serine hydrolase inhibitors, primary screen, counter-screen for RBBP9 inhibitor project, biochemical, fluorescence polarization | inhibition, % at 9.51 µM | actives 0.33% (n = 300,000) | recombinant Fam108B, FP-Rh probe fluorescence polarization | AID 1947, 2009;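 active = inhibition above the screen mean inhibition plus 3 SD, computed separately per campaign, cut at about 18% in these data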;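 also: inhibitors lower polarization as less probe binds the enzyme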
pPAFAH FP inh: pPAFAH enzyme inhibitors, primary screen, biochemical, fluorescence polarization, human | Platelet-activating factor acetylhydrolase (Homo sapiens), Q13093 | inhibition, % at 3.39 µM | actives 1.5% (n = 330,000) | recombinant pPAFAH, FP-rhodamine probe fluorescence polarization;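 active = inhibition above the mean inhibition across the screen plus 3 SD, cut at about 25% in these data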;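 also: inhibitors block binding of the rhodamine activity-based probe so polarization drops; 0% = enzyme with DMSO and 100% = wells lacking pPAFAH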
PME-1 inh: PME-1 inhibitors via competitive probe labeling, primary screen, biochemical, fluorescence polarization, FP-Rh probe, HTS; Protein phosphatase methylesterase 1 (Homo sapiens), Q9Y570; recombinant PME-1; inhibition, % at 5.9 µM; actives 0.53% (n = 320,000); AID 2130, 2009;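 active = inhibition above the campaign mean of all compounds plus 3 SD, cut at about 26% in these data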;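 also: competitive labeling of PME-1 active site by serine hydrolase directed probe; 0% = PME-1 with DMSO and 100% = wells lacking PME-1 enzyme; inhibitors block probe labeling so polarization falls and inhibition rises; many of its hits are not listed in these tables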
Target sequence (Q9Y570 whole entry, looked up): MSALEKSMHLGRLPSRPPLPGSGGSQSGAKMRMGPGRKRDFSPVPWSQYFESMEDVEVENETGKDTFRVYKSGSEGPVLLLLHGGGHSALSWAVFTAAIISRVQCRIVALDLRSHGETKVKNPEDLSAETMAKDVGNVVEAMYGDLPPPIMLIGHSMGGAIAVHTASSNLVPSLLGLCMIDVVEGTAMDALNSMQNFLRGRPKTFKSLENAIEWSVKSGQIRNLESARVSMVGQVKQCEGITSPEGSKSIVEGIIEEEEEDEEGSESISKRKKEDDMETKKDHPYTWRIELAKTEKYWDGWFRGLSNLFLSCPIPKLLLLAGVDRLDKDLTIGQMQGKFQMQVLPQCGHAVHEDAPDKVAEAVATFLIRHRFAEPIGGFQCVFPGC
PAFAH1B3 inh: PAFAH1B3 enzyme inhibitors, primary screen, biochemical, fluorescence polarization, human; Platelet-activating factor acetylhydrolase IB subunit alpha1 (Homo sapiens), Q15102; recombinant PAFAH1B3, FP-rhodamine probe; inhibition, % at 3.39 µM; actives 0.28% (n = 340,000); AID 492972, 2010;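 active = inhibition above the screen-wide average of all tested compounds plus 3 SD, cut at about 25% in these data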;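 also: 0% = enzyme with DMSO only and 100% = wells lacking PAFAH1B3 protein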
Target sequence (Q15102 whole entry, looked up): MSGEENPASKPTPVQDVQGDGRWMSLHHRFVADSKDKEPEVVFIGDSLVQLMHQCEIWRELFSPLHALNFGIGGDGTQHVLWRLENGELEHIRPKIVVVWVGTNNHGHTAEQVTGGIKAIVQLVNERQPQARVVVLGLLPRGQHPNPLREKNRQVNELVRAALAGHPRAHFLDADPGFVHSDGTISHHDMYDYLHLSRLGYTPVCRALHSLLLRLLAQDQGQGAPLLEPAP
PAFAH1B2 inh: PAFAH1B2 enzyme inhibitors, primary screen, biochemical, fluorescence polarization, human; recombinant PAFAH1B2, FP-rhodamine activity probe; actives 1.2% (n = 340,000); inhibition, % at 3.39 µM;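 active = inhibition above the mean of all tested compounds plus 3 SD, cut at about 24% in these data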;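 also: 0% = enzyme with DMSO and 100% = wells lacking PAFAH1B2; many of its hits are not listed in these tables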
Target sequence (P68402 whole entry, looked up): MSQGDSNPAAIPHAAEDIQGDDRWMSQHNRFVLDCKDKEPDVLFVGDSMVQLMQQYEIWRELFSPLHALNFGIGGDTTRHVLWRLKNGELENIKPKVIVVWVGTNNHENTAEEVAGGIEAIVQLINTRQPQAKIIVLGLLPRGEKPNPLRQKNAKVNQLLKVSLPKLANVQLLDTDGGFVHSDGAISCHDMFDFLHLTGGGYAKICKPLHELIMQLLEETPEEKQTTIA
PAD4 FP inh: human PAD4 inhibitors, primary screen, biochemical, fluorescence polarization, 1536-well format; Protein-arginine deiminase type-4 (Homo sapiens), Q9UM07; recombinant PAD4, RCA probe fluorescence polarization; inhibition, % at 6.36 µM; actives 0.41% (n = 330,000);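 active = percent inhibition above a cutoff equal to the mean of all tested compounds plus 3 SD, cut at about 15% in these data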;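 also: 0% = PAD4 with RCA probe and DMSO and 100% = probe without PAD4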
* marks the source's active call; other numbers are inactive results; nt = not tested or not shown. The list is partial, so the mix of outcomes need not match the whole.

SMILES	LYPLA1 inh	PAFAH2 FP inh	Fam108B inh	pPAFAH FP inh	PME-1 inh	PAFAH1B3 inh	PAFAH1B2 inh	PAD4 FP inh
Cc1ccc(Cl)cc1NS(=O)(=O)c1cc2[nH]c(=O)c(=O)[nH]c2cc1C	8	0	1	5	4	1	5	-3
N#Cc1cc2ccccc2nc1SCC(=O)Nc1ccc(S(=O)(=O)N2CCCC2)cc1	-27	-14	-1	9	2	-7	-1	3
Cc1ccc(Nc2nc(N)nc(CSc3nnnn3-c3ccccc3)n2)cc1	2	0	-4	2	3	2	4	1
CC1CCN(c2ccccc2NC(=S)NC(=O)c2cccs2)CC1	-11	-13	-8	-5	-13	-4	4	0
CCOC(=O)C(CSCC(=O)c1ccc(Br)cc1)NC(=O)OC(C)(C)C (configuration not stated)	-1	nt	1	0	-2	nt	nt	1
CCc1ccc(C(=O)COC(=O)c2cncc(Br)c2)cc1	1	6	3	1	1	8	1	0
CCn1c(CNC(=O)Cc2ccc(OC)cc2)nnc1SCC(=O)c1ccc(Br)cc1	-1	0	-2	2	-3	-4	6	-2
CCCC(=O)Nc1nc(-c2ccccc2)c(CC)s1	-2	0	-2	4	0	-2	6	-4
O=C1C(Cl)=C(NC2CCCCC2)C(=O)N1c1ccc(Cl)cc1	-2	-3	1	0	1	6	-2	3
CCc1ccc(NC(=O)c2noc(C(C)C)c2[N+](=O)[O-])cc1	-2	-2	-1	-3	2	9	-1	0
CCCCC(=O)Nc1nc2c(s1)COc1ccccc1-2	0	-1	-6	4	1	-2	2	0
CSC(=NS(=O)(=O)c1ccc(C)cc1)SC	0	1	-4	3	0	7	0	-3
C=CCOC(=O)CSCC(NC(=O)OC(C)(C)C)C(=O)OCC (configuration not stated)	2	-6	-9	2	3	-1	2	-2
Nc1c(C(=O)OCC2CCCO2)c2nc3ccccc3nc2n1-c1ccc2c(c1)OCCO2 (configuration not stated)	2	nt	-2	4	1	nt	nt	-4
Cn1c(SCC(=O)N/N=C/c2ccc([N+](=O)[O-])s2)nnc1-c1ccccc1	0	10	21*	10	11	20	16	-4
Cc1ccc(NC(=O)c2noc(C(C)C)c2[N+](=O)[O-])cc1	2	7	0	4	0	5	6	-5
CCCCc1nnc(NC(=O)CSc2nc(=O)cc(N)n2-c2cccc(C)c2)s1	2	0	2	1	-4	14	3	-5
CCCc1cc(=O)[nH]c(SCC(=O)Nc2oc(C)c3c(C)n[nH]c(=O)c23)n1	-1	2	4	-1	0	2	4	-2
Cc1cc(C(=O)c2ccc(C(C)(C)C)cc2)c(NC(=O)CCl)s1	-4	-8	-3	0	-1	0	-2	4
O=C(COc1ccccc1Cl)NC(=O)NC1CCCC1	0	-2	-2	-12	-7	5	3	-7
Cc1cccc(CCNS(=O)(=O)c2ccc3c(c2)NC(=O)CO3)c1	1	-1	-2	9	9	-5	0	-3
O=C(CSc1nnc(-c2cccnc2)s1)Nc1ccnc2ccccc12	-1	1	1	-5	-9	9	3	1
COCCCN(CC(=O)NCc1ccccc1)S(=O)(=O)c1ccc(C)cc1	1	-3	-2	3	7	10	8	2
Cc1cc(C(=O)CCl)c(C)n1-c1c(C)n(C)n(-c2ccccc2)c1=O	-2	8	-2	0	-4	2	0	-5
CC1(N2CCOCC2)CC2(O)C(=[N+]1[O-])CCc1nonc12 (configuration not stated)	-2	nt	4	12	-2	nt	nt	-16

An excerpt from above, limited to Fam108B inh and PAFAH2 FP inh.
Molecule | Fam108B inh | PAFAH2 FP inh
Cc1ccc(Cl)cc1NS(=O)(=O)c1cc2[nH]c(=O)c(=O)[nH]c2cc1C | 1 | 0
N#Cc1cc2ccccc2nc1SCC(=O)Nc1ccc(S(=O)(=O)N2CCCC2)cc1 | -1 | -14
Cc1ccc(Nc2nc(N)nc(CSc3nnnn3-c3ccccc3)n2)cc1 | -4 | 0
CC1CCN(c2ccccc2NC(=S)NC(=O)c2cccs2)CC1 | -8 | -13

3 compounds from above, arranged by their value in PAD4 FP inh, lowest first.
smiles	PAD4 FP inh
Cc1cc(C(=O)CCl)c(C)n1-c1c(C)n(C)n(-c2ccccc2)c1=O	-5
Cc1ccc(Cl)cc1NS(=O)(=O)c1cc2[nH]c(=O)c(=O)[nH]c2cc1C	-3
CCc1ccc(C(=O)COC(=O)c2cncc(Br)c2)cc1	0

Next part.
SMILES	LYPLA1 inh	PAFAH2 FP inh	Fam108B inh	pPAFAH FP inh	PME-1 inh	PAFAH1B3 inh	PAFAH1B2 inh	PAD4 FP inh
CCCc1cc(=O)[nH]c(SCC(=O)Nc2nc3ccc(OCC)cc3s2)n1	-3	6	-3	6	-5	-1	5	5
O=C(OCc1nnc(-c2ccccc2)o1)c1cc(S(=O)(=O)N2CCOCC2)c(Cl)cc1Cl	0	11	1	5	-1	3	0	-2
CC1(C)Cc2c(cnn2-c2cccc(F)c2)C(NC(=O)c2ccc(=O)[nH]n2)C1 (configuration not stated)	-2	5	-2	0	1	9	-6	-3
COc1ccccc1CNS(=O)(=O)c1ccc2c(c1)NC(=O)CS2	-4	-1	0	3	5	-1	4	1
O=C(CCCl)N1CCCC2(CCCCC2)C1	-6	0	-1	4	0	0	12	3
CC(=O)Oc1c(Cl)cc(N(C(C)=O)S(=O)(=O)c2ccccc2)c2ccccc12	-1	nt	-5	8	6	nt	nt	-3
O=S(=O)(c1cnc(Cl)c(Cl)c1)N1CCCc2ccccc21	9	-4	-2	0	5	7	1	2
Cc1cc2[nH]c(=O)c(=O)[nH]c2cc1S(=O)(=O)Nc1cccc(F)c1	2	0	4	5	-1	7	3	-3
CC(=O)Oc1ccccc1N(C(C)=O)S(=O)(=O)c1ccc2ccccc2c1	-2	-5	0	3	18	2	3	-2
Cc1ccc(S(=O)(=O)C(NC(=O)c2ccccc2)=C(Cl)Cl)cc1	-1	12	0	-1	3	4	-2	-3
CCc1nnc(NC(=O)CSc2nnc(-c3ccccc3O)o2)s1	0	29	5	4	-5	15	-2	-4
Cc1ccc(C)c(S(=O)(=O)c2c[nH]c(=S)[nH]c2=O)c1	-4	4	-3	-10	-7	3	0	-3
CC(Cl)C(=O)NN=C(c1ccccc1)c1ccccc1 (configuration not stated)	-2	3	0	-1	-1	9	9	1
CN(C)CCCN(CCCNC(=O)/C=N/O)Cc1ccccc1	2	1	5	3	3	3	2	-3
Cc1ccc(Nc2nc(N)nc(CSc3nnc(C)s3)n2)cc1	-3	6	-4	-2	6	-6	-1	2
Cc1cc(-c2nnc(SCC(=O)c3ccc(Cl)cc3)o2)no1	-2	7	-5	9	3	4	7	5
CC1CCN(S(=O)(=O)c2cnc(Cl)c(Br)c2)CC1	1	-2	3	1	0	-3	26*	0
Cc1nnc(SCC(=O)c2ccc(S(=O)(=O)N3CCOCC3)cc2)n1-c1ccccc1	-1	4	3	1	-3	6	2	0
Nc1cc(=O)[nH]c(SCC(=O)NNC(=O)c2ccccc2)n1	1	8	-2	0	3	1	1	-3
CCCc1nc2sc3c(SCC(=O)NCc4ccco4)ncnc3c2c2c1CCC2	-4	14	-14	20	-10	-9	0	0
Cc1nnc(SCc2nc(N)nc(Nc3ccccc3)n2)s1	0	5	5	1	-3	4	2	-2
N#Cc1c(N)n(-c2ccccc2N)c2nc3ccccc3nc12	-2	5	2	8	5	23	9	-12
Nc1cc(=O)[nH]c(SCC(=O)Nc2cc(Cl)ccc2Cl)n1	4	-1	-4	7	4	-5	3	1
CCOC(=O)C1CCCN(C(=O)c2ccc(S(=O)(=O)NCc3ccco3)cc2)C1 (configuration not stated)	3	8	3	1	-4	0	3	1
COCCCNc1oc(COc2ccc(Cl)cc2Cl)nc1C#N	-4	7	-5	0	-2	4	2	-4
(cont.)
SMILES	LYPLA1 inh	PAFAH2 FP inh	Fam108B inh	pPAFAH FP inh	PME-1 inh	PAFAH1B3 inh	PAFAH1B2 inh	PAD4 FP inh
CCNc1oc(COc2ccccc2F)nc1C#N	-2	4	-2	2	-3	0	4	-3
Cc1cc(C)nc(N2N=C(C(F)(F)F)CC2=O)n1	-2	4	0	-1	6	4	2	-1
CC(C)c1onc(C(=O)NC2CCCC2)c1[N+](=O)[O-]	-2	4	1	0	-3	3	3	0
CCOC(=O)Cc1nnc(NC(=O)CSc2nc3ccccc3[nH]2)s1	1	-3	-1	4	-8	1	3	-1
O=C(CSc1ccc(Cl)cc1)Nc1nnc(-c2cccc([N+](=O)[O-])c2)s1	-1	-20	-13	9	-4	-11	11	-5
CC(=O)Nc1ccc(S(=O)(=O)NC2Cc3ccccc3C2)cc1	-2	0	1	3	-3	4	2	0
Cc1cc(Cl)c(S(=O)(=O)Nc2ccc(S(=O)(=O)N3CCOCC3)cc2)cc1OCC(N)=O	2	6	-2	6	0	14	4	0
CCOC(=O)c1c(C)oc(NC(=O)CCl)c1C(=O)OCC	1	-6	-1	1	4	-3	-2	0
COCCOC(=O)C1=C(C)NC2(O)c3ccccc3C(=O)C12O (configuration not stated)	1	-3	-2	2	-14	7	0	3
COCCNc1ccc(S(=O)(=O)N2CCCC2)cc1[N+](=O)[O-]	-1	-8	1	2	6	-3	-1	-2
COc1ccccc1N1CCN(CC(=O)NCc2ccc(Cl)cc2)CC1	7	1	-3	2	13	16	2	6
Nc1cc(=O)[nH]c(SCC(=O)Nc2ccccc2-c2ccccc2)n1	-2	1	0	1	-3	3	3	0
O=C(COc1ccc2ccccc2c1)N/N=C/c1ccccn1	-6	4	3	-5	-5	5	5	-4
CCOC(=O)C1CCN(C(=O)CCc2ccc(S(=O)(=O)NCC(C)C)cc2)CC1	-4	3	0	18	-5	5	2	-2
O=C(OCN1C(=O)c2ccccc2C1=O)C1CCCCC1	-1	13	-7	-4	-10	2	-2	-9
O=C(CSc1nnc(Cn2cnc3ccccc32)o1)c1ccccc1	-6	9	3	-1	-5	9	-3	-2
CC(=O)NS(=O)(=O)c1ccc(N=c2ssc3c2-c2cc(C)c(C)cc2NC3(C)C)cc1	-2	-2	0	10	7	11	6	-4
CC(C)c1cccc(C(C)C)c1NC(=O)CCl	2	-4	2	4	-2	-6	2	-3
CC(=O)Nc1ccc(S(=O)(=O)NCCC(=O)OCCN2C(=O)c3ccccc3C2=O)cc1	1	3	2	-1	-4	6	1	-3
COCC(=O)NC1CCN(S(=O)(=O)c2ccc(C(=O)O)cc2)CC1	0	-3	-2	1	4	7	4	2
COc1ccccc1N1CCN(Cc2nc3ccccc3c(=O)n2CC(C)=O)CC1	3	1	-3	6	1	3	-2	-1
CC1CN(S(=O)(=O)c2cccc(C(=O)OCC(=O)Nc3ccc4c(c3)OCO4)c2)CC(C)O1 (configuration not stated)	1	67*	6	11	-2	1	0	-1

Compound profiles (already shown).
Record of Nc1cc(=O)[nH]c(SCC(=O)Nc2ccccc2-c2ccccc2)n1 = LYPLA1 inh = -2; PAFAH2 FP inh = 1; Fam108B inh = 0; pPAFAH FP inh = 1; PME-1 inh = -3; PAFAH1B3 inh = 3; PAFAH1B2 inh = 3; PAD4 FP inh = 0
Record of COc1ccccc1N1CCN(Cc2nc3ccccc3c(=O)n2CC(C)=O)CC1 = LYPLA1 inh = 3; PAFAH2 FP inh = 1; Fam108B inh = -3; pPAFAH FP inh = 6; PME-1 inh = 1; PAFAH1B3 inh = 3; PAFAH1B2 inh = -2; PAD4 FP inh = -1

Source: PubChem BioAssay
